Polio RdRp inh: poliovirus RNA polymerase inhibition; P03300; poliovirus polymerase elongation, fluorescence polarization; stronger effect = lower value; % elongation, % (compound at 16.7 µg/mL); actives 0.66% (n = 150,000); in the data active = % elongation below about 90%; also: some results filed as inactive read as strong as hits
MbtI inh: MbtI salicylate synthase inhibition; P9WFX0; purified MbtI enzyme, fluorescence intensity read-out; inhibition, %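 (about 17 µg/mL by stock and volumes)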; actives 0.89% (n = 100,000);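 active = above 50% in both replicates, above 80% if mildly self-fluorescent; inactive = the rest, strongly fluorescent compounds included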;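 also: 0% = mean of negative and 100% = mean of positive controls; one replicate is shown; some compounds called inactive have numbers as strong as hits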
Target sequence (P9WFX0 whole entry, looked up): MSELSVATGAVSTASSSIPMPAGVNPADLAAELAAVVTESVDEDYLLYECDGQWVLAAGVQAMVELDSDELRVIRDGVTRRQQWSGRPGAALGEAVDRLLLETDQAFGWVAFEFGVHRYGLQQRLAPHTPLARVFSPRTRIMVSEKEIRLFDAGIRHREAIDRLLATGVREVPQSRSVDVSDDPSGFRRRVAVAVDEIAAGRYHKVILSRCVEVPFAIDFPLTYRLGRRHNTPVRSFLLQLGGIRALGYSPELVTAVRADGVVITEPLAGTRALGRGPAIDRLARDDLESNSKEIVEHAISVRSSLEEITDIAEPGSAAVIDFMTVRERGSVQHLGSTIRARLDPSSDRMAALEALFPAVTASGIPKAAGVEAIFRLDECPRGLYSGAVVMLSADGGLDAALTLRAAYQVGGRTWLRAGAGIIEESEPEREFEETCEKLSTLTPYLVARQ
MenB inh: Mtb MenB enzyme inhibition. P9WNP5. MenB enzyme assay, absorbance read-out; some hits fall short of the stated cut. inhibition, %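 (about 12 µg/mL by stock and volumes)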. actives 0.43% (n = 100,000);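 active = mean of two replicates above 30%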;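 also: 0% = no compound and 100% = wells with inactive enzyme; the first replicate is given; strong numbers were not always called active; inactives centre near -10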
Target sequence (P9WNP5 whole entry, looked up): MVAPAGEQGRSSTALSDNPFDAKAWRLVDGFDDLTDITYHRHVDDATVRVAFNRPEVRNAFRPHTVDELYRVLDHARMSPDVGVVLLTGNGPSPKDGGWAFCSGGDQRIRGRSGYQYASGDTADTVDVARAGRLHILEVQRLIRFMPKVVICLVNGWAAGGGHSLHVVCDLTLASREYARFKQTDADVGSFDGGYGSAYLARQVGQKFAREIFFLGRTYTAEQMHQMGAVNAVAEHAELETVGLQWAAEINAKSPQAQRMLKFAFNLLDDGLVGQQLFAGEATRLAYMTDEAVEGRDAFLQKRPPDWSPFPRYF
Polio RdRp inh intensity: further read-out of Polio RdRp inh, marked with its call; % elongation; measured here: total intensity read-out; formula for this scale not given here;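 total fluorescence in place of polarization; lower means less elongation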
Numbers without * were called inactive; x = not tested or not shown; & = joins results of further samples. No enrichment for hits; 1.8% or so of the library scored in one or more.

SMILES	Polio RdRp inh	Polio RdRp inh intensity	MbtI inh	MenB inh
COC(=O)CSc1nc(N2CCOCC2)c2c(c1C#N)CC(C)(C)SC2	102	107	40	-13
CCOc1ccc(NC2=CC(=O)CC(C)(C)C2)cc1	102	102	10	x
CCOC(=O)c1cc2ccc(OC)c(OC)c2c(=O)s1	102	102	1	-8
COc1ccc2c(CC(=O)OCC(=O)c3ccccc3)coc2c1	99	107	-3	-35
CC1CN(C(=O)Nc2ccc(Cl)cc2)c2ccccc2O1 (stereo not drawn)	101	105	7	9
CCOC(=O)c1[nH]c(C)c(C(=O)OCc2nnc(-c3ccc(Cl)cc3)o2)c1C	102	110	-8	8
CCOC(=O)C1=C(C)NC(C(=O)NCc2cccc(OC)c2)CS1 (stereo not drawn)	105	106	1	-2
CCOC(=O)Cn1cnc(=O)c(C#N)c1C	99	102	-8	-6
CCNc1nc(NCC)nc(N(C#N)CC)n1	103	101	-9	-14
NC(=S)Cc1nc2n(n1)Cc1ccccc1-2	83*	70*	77*	-16
COc1cccc(NC(=O)N2CCN(C/C=C/c3ccccc3)CC2)c1	104	99	1	-38
O=C(CCCn1c(=O)oc2ccccc21)Oc1ccc2c(c1)OCO2	108	99	2	-27
COc1cccc(OC)c1/C(O)=C(\C#N)c1nc2ccccc2s1	102	114	8	-25
O=C(O)Cn1cc(/C=C2\C(=O)NN(c3ccccc3)C2=O)c2ccccc21	102	98	x	-250
Cc1ccc(N2C(=O)N(CC(N)=O)c3ccccc3S2(=O)=O)cc1	101	102	-20	-15
COc1ccc(N2CCN(CCNC(=O)c3ccc(NC(=O)C4CCCO4)cc3)CC2)cc1 (stereo not drawn)	100	101	5	-18
N#CNC(N)=Nc1ccccc1	99	101	-4	-57
Cc1cccc(C(=O)Nc2cc(C(F)(F)F)ccc2-n2cncn2)c1	99	102	11	-3
O=C(CCSc1nnc2sc3ccccc3n12)Nc1cccnc1	102	109	3	-8
CC(C(=O)O)N1C(=O)CCC1=O (stereo not drawn)	107	104	x	-3
O=C(NCCN1CCOCC1)c1ccco1	102	104	3	0
CCOC(=O)Cc1csc(NC(=O)CC)n1	100	92	x	-25
CC(O)c1nc2ccccc2n1Cc1ccccc1 (stereo not drawn)	103	100	-4	-43
Nc1cc(-c2nc3ccccc3o2)ccc1Cl	101	101	117	-23
CC(=O)Nc1ccc(S(=O)(=O)NCC2CCN(CC3CCCCC3)CC2)cc1	104	102	-9	-34
c1ccc(CSc2ccc(-c3ccco3)nn2)cc1	103	99	13	-64
COc1ccccc1NC1=NC(CO)(CO)CS1	105	102	-4	-9
Cc1ccc(N(Cc2ccco2)C(=O)c2cc3ccccc3oc2=O)cc1	104	104	6	-51
Cc1ccccc1/[N+]([O-])=C/c1cccs1	108	106	15	-6
O=C(CSc1nnc(-c2ccco2)o1)NC(c1ccccc1)c1ccccc1	102	101	0	-46

Filtered by structure, those above containing an aryl methoxy group (7)
SMILES	Polio RdRp inh	Polio RdRp inh intensity	MbtI inh	MenB inh
CCOC(=O)c1cc2ccc(OC)c(OC)c2c(=O)s1	102	102	1	-8
COc1ccc2c(CC(=O)OCC(=O)c3ccccc3)coc2c1	99	107	-3	-35
CCOC(=O)C1=C(C)NC(C(=O)NCc2cccc(OC)c2)CS1 (stereo not drawn)	105	106	1	-2
COc1cccc(NC(=O)N2CCN(C/C=C/c3ccccc3)CC2)c1	104	99	1	-38
COc1cccc(OC)c1/C(O)=C(\C#N)c1nc2ccccc2s1	102	114	8	-25
COc1ccc(N2CCN(CCNC(=O)c3ccc(NC(=O)C4CCCO4)cc3)CC2)cc1 (stereo not drawn)	100	101	5	-18
COc1ccccc1NC1=NC(CO)(CO)CS1	105	102	-4	-9

The list goes on.
SMILES	Polio RdRp inh	Polio RdRp inh intensity	MbtI inh	MenB inh
COCCNC(=O)c1ccccc1NC(=O)Nc1ccccc1	100	104	-63	-14
CN1C2=C(C(=O)CCC2)C(c2cccc3ccccc23)C2=C1CCCC2=O	101	104	-34	-33
O=C(Cc1nc2ccccc2[nH]1)C(F)(F)F	100	103	-2	-12
O=C(NCCC1=CCCCC1)c1cccnc1SCc1ccccc1Cl	103	105	-10	-11
C=C(C)CN=c1scc(-c2cccs2)n1/N=C/c1ccc(O)c(O)c1	107	111	7	-11
COC(=O)c1c(C(F)(F)F)nc(C(F)F)c(C(=O)O)c1CC(C)C	102	102	-15	-17
COc1cccc(-c2csc(N3CCN(C(=S)NCc4ccco4)CC3)n2)c1	96	110	21	-32
Ic1ccc(Nc2nc(NCCN3CCOCC3)nc(N3CCCC3)n2)cc1	101	104	-12	-12
O=c1cc(CSc2ccc(Cl)cc2)[nH]c2[nH]n(-c3ccccc3)c(=O)c12	102	103	12	-4
COC(=O)c1cc(COC(=O)c2ccc3c(c2)S(=O)(=O)c2ccccc2C3=O)oc1C	105	104	-7	-6
O=C(O)c1cc2c(cn1)[nH]c1ccccc12	106	124	116	0
CC[C@H]1OC(=O)[C@H](C)[C@@H](O[C@H]2C[C@@](C)(OC)[C@@H](O)[C@H](C)O2)[C@H](C)[C@@H](O[C@@H]2O[C@H](C)C[C@H](N(C)C)[C@H]2O)[C@](C)(O)C[C@@H](C)CN(C)[C@H](C)[C@@H](O)[C@]1(C)O	100	105	-8	3
CSc1cccc(NC(=S)NCCN(C2CCCCC2)C2CCCC2)c1	102	103	-17	-4
CCOC(=O)c1c(C)noc1C	x	x	-6	-8
CC(C)n1nnnc1SCC(=O)NCc1ccco1	101	102	-6	-2
Cc1nc(C2C(=O)c3ccc(O)c(O)c3OC2C(F)(F)F)cs1 (stereo not drawn)	105	111	x	-25
Cn1cc(C(=O)N2CCCCC2)c(=O)c2cc(S(=O)(=O)N3CCCC3)ccc21	99	102	-4	6
N#CCSc1nnc(-c2ncc(C(F)(F)F)cc2Cl)n1-c1ccc(Cl)cc1	96	103	-5	-8
CN(C)CCCNc1ncnc2ccccc12	105	100	x	3
NC(=O)N/N=C/c1ccc(OC(F)F)cc1	104	108	6	-24
Cc1cccc(/N=c2\scc(-c3ccco3)n2-c2ccccc2)n1	104	104	14	-26
CC1CCC(NC(=O)c2ccc3c(=O)[nH][nH]c(=O)c3c2)CC1 (stereo not drawn)	104	95	-7	-45
Cc1ccc(-n2nc(C)cc2NC(=O)c2ccc(Cl)cc2)cc1	103	99	-12	x
O=C1c2ccccc2C(=O)N1CN(C(=O)C(F)(F)F)c1ccc(Cl)cc1	103	108	4	-16
CCCC(=O)N1CCc2cc(OC)c(OC)cc2C1COc1ccc(OC)cc1 (stereo not drawn)	99	93	5	-2
O=c1cc(CN2CCN(Cc3ccccc3)CC2)nc2sccn12	104	103	12	-23
C/C(=C\C(=O)O)C12CC3CC(CC(C3)C1)C2	103	105	-4	x
CCN(CC)C(=O)c1cc2c(s1)-c1c(C)cccc1OC2	102	104	-38	2
CC1CN(C(=O)c2sc3ccccc3c2Cl)CC(C)O1 (stereo not drawn)	101	105	-5	x
CNC(=O)COC(=O)c1oc2ccccc2c1C	103	104	141	-26
CCOC(=O)c1sc(SCc2ccccc2)c2c1-c1sccc1N(C)S2(=O)=O	106	111	-6	-30
O=C(N/N=C/c1cccs1)C1CCN(S(=O)(=O)c2cccs2)CC1	102	104	4	-30
O=C1CCc2cc(C3=CSC4=NCCCN34)ccc2N1	103	97	10	-15
Cc1ccccc1SCC(=O)NCCN1CCOCC1	103	108	4	-1
COCCCn1c(=O)c2ccccc2c2ccccc2c1=O	100	102	-4	-11
N#CCc1c(C#N)c(N)nc(N2CCCCC2)c1C#N	110	113	-18	-2
COc1ccc(CCN2CCC(Nc3nc4ccccc4n3Cc3ccc(F)cc3)CC2)cc1	102&101	102&101	-4&-17	4&-8
Cc1nc2ccccc2c(=O)n1C	99	100	2	3
O=S(=O)(c1ccc(NC(=S)NCc2ccco2)cc1)N1CCCc2ccccc21	100	103	2	-34
CC(C)C(=O)Nc1nc2ccccc2s1	106	106	x	-8
COc1ccc(C)c2sc(N(Cc3ccccn3)C(=O)c3ccco3)nc12	105	101	8	-18
Cc1nn(C(C)CN)c(C)c1C (stereo not drawn)	101	102	-3	34*
CCC(C)(CC(=O)O)CC(=O)Nc1cc(OC)c(Cl)cc1OC (stereo not drawn)	106	105	0	-35
Oc1c(CN2CCOCC2)ccc2ccccc12	106	113	x	21
Cc1ccc2cnn(CC(=O)N3CC(C)CC(C)C3)c2c1 (stereo not drawn)	101	104	-6	-2
O=C(Nc1ccccc1C(=O)O)c1ccccc1F	103	101	10	-14
Oc1ccc(Cl)cc1C=Nc1ccc2oc(Cc3ccc(Cl)cc3)nc2c1	103	102	-9	1
CNc1nc(SCc2c(C)noc2C)nc2ccccc12	100	102	7	-20
Cc1ccc(C(=O)O)cc1-c1ccc(/C=C2/NC(=O)N(c3ccccc3)C2=O)o1	106	112	-12	-262
CCN(CC)c1ccc(/C=C(/C#N)c2ccc3c(c2)OCO3)cc1	99	103	-7	-96
CC(=O)Nc1ccc2nc(Nc3nc4ccc(C(C)C)cc4s3)sc2c1	106	113	11	-24
CCOC(=O)c1sc(SCCS(=O)(=O)c2ccc(Cl)cc2)c2c1CCCC2=O	102	106	-3	-8
COCCNC(=O)C1c2ccccc2C(=O)N(CCOC)C1c1cccs1 (stereo not drawn)	106	98	3	-26
CC1(C)CC(=O)C(C(NC(=O)c2ccncc2)(C(F)(F)F)C(F)(F)F)=C(NCc2ccco2)C1	99	107	x	-13
CCCc1cc(=O)[nH]c(SCC(=O)/C(C#N)=C(\C)N)n1	99	104	32	22
COC(=O)c1ccccc1NC(=O)CSc1nnc(CSc2nc(C)cc(C)n2)o1	101	99	5	-21
CC(=O)Nc1ccc(S(=O)(=O)NC2CCCCC2NS(=O)(=O)c2ccc(NC(C)=O)cc2)cc1 (stereo not drawn)	102	104	-13	2
O=c1[nH]c2nonc2nc1/C=C(\O)c1ccccc1	103&103	108&105	-10&-13	-181&-103
COc1ccc(NC(=O)Cn2c(=O)n(-c3ccccc3)c(=O)c3ccc(C(=O)NCc4ccco4)cc32)cc1	104	102	-10	3
O=C(CCC(=O)N1CCN(S(=O)(=O)Cc2ccccc2)CC1)c1cccs1	98	105	-2	-4
The list goes on:
SMILES	Polio RdRp inh	Polio RdRp inh intensity	MbtI inh	MenB inh
Cn1c(CS(=O)(=O)c2ccc(Cl)cc2)c(C#N)c2ccccc21	101	103	-3	2
Cc1nc2cc(C(F)(F)F)ccc2n1C1CCN(C(=O)C2CC2)CC1	101	102	-2	25
Clc1ccc(-c2ncnn2-c2cccc(Cl)c2)cc1	102	100	-4	-3
CCSC1=C(C#N)C(=O)NC(c2ccc(N(C)C)cc2)S1 (stereo not drawn)	100	105	45	-10
NC(=O)NC(=S)NC(=O)c1ccccc1Cl	109	114	-11	-9
Cn1nnc(NC(=S)NC(=O)c2cccs2)n1	102	104	-5	1
O=C(O)C(Cc1ccco1)P(=O)(O)CN1CCOCC1 (stereo not drawn)	102	110	x	-3
Cc1c(CNC(=O)c2ccc(C(F)(F)F)cc2)sc2ccccc12	103	100	-7	-48
CC(C(=O)NCCC1=CCCCC1)n1ncn2cccc2c1=O (stereo not drawn)	101	103	-12	7
Cc1cccc(CN2CCC(CNC(=O)c3ccc4c(Cl)c5c(nc4c3)CCCC5)CC2)c1	101	104	-1	-19
CC(C)c1ccc(NC(=O)CSCc2csc3ccccc23)cc1	103	101	-6	-13
Cc1nnc2c(Nc3ccccc3)nc3ccccc3n12	100	101	10	-6
NC(=O)COC(=O)/C=C/c1ccc(S(=O)(=O)N2CCOCC2)cc1	104	110	-5	-21
O=c1ccc(-c2ccc(S(=O)(=O)N3CCN(c4ccccc4)CC3)s2)n[nH]1	103	102	7	-17
COc1ccc(C(=O)NC2CCN(CC(=O)N3CCCCCC3)CC2)cc1	101	104	-15	16

The final 2 records of the part above come first, to join the parts:
SMILES	Polio RdRp inh	Polio RdRp inh intensity	MbtI inh	MenB inh
O=c1ccc(-c2ccc(S(=O)(=O)N3CCN(c4ccccc4)CC3)s2)n[nH]1	103	102	7	-17
COc1ccc(C(=O)NC2CCN(CC(=O)N3CCCCCC3)CC2)cc1	101	104	-15	16
C=CCNC(=S)Nc1ccc(Br)cc1	93	102	10	-4
COC(C(=O)NN=C1CCN(C)CC1)c1ccccc1 (stereo not drawn)	99	99	-16	-35
O=S(=O)(NCc1csc(-c2cccnc2)n1)c1ccc2c(c1)CCCC2	103	104	16	-15
CC1CN(C(=O)CSc2nc(-c3ccco3)cc(C(F)(F)F)n2)CC(C)O1 (stereo not drawn)	99	101	-1	-6
CO[C@H]1/C=C/O[C@@]2(C)Oc3c(C)c(O)c4c(O)c(c(/C=N/N5CCN(C)CC5)c(O)c4c3C2=O)NC(=O)/C(C)=C\C=C\[C@H](C)[C@H](O)[C@@H](C)[C@@H](O)[C@@H](C)[C@H](OC(C)=O)[C@@H]1C	100	97	-2	-5
NC(=O)c1c(-c2ccc(F)cc2)noc1N	101	100	2	-13
Cc1nnsc1C(=O)Nc1ccccc1C#N	101	95	-4	-13
CCN(CC)C(=O)CSc1nnc(-c2ccccc2Cl)o1	103	103	4	12
CCCCN1C(=O)CNC1=S	102	109	8&8	-31&-32
CC1CN=C(NCCSc2ccc(Cl)cc2)S1 (stereo not drawn)	104	105	-2	-16
Cc1ccc(OCC(=O)NC2CC2)cc1	101	101	-26	-12

Bioassay records (PubChem BioAssay)
